Screening data as filed in PubChem BioAssay.
GALR2 ag: activates the human galanin receptor 2. GALR2-expressing cells, agonist activation read-out. 140,000 compounds, 0.48% hits. activation, %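 (tested at 5 µM)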;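 active = above mean plus 3 SD of all compounds, about 5% in these data, not always enough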;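 note: 0% = vehicle buffer wells and 100% = reference agonist at full effect; tested in CHO reporter cells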
Target sequence (O43603 whole entry, looked up): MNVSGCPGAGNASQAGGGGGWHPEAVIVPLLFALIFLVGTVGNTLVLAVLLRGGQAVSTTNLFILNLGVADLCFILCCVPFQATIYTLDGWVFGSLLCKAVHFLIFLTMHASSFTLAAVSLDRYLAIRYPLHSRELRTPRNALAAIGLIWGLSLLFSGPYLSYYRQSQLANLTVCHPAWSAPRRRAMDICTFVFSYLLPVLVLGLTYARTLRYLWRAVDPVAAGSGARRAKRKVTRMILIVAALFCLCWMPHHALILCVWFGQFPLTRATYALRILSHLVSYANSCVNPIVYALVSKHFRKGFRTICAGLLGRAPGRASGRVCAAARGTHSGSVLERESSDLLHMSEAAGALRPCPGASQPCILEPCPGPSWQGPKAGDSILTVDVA
Insulin prom inh: TRM-6 insulin promoter activity inhibition. TRM-6 cells (human fetal islet line), insulin promoter-eGFP reporter, imaging; reporter expression induced with tamoxifen. inhibition, % at 2 µM. 130,000 compounds, 0.9% hits. AID 1273;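 active = inhibition above the mean plus 3 SD, with well images judged a real hit on visual review, cut at about 60% in these data, passing the limit was not always enough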
PKD1 inh: blocks activity of human protein kinase D1 | inhibition, %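 (about 10 µM by stock and volumes)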 | 200,000 compounds, 0.056% hits | AID 797 | PKD1 kinase fluorescence polarization assay;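 active = inhibition of 50% or more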;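 note: controls were vehicle for no effect and a reference inhibitor for full effect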
HSV augment: HSV replication enhancement; HSV replication augmentation in cells, fold increase; AID 1956; 220,000 compounds, 0.005% hits; maximum fold increase;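 active = peak rise of 1.5-fold or more in the series; tested in PC3 cells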;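 note: first round at 10 µM; read as green reporter fluorescence; hits show the peak of a series up to 25 µM; 1 = signal of infected wells without compound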
RGS16-Gao: regulators of human RGS16-Galphao interaction; O15492+P09471; bead-based flow cytometry RGS16-Galphao binding, fluorescence; actives lie on both sides; binding response (% of control), % at 10 µM; 220,000 compounds, 0.38% hits; AID 1441;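 active = below 25% or above 175%, edge rows of some plates excepted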;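 note: Galphao activated by GDP with aluminum fluoride before binding; 100% = wells without compound and 0% = beads without RGS; some results beyond the cut were filed as inactive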
Target sequence (O15492 whole entry, looked up): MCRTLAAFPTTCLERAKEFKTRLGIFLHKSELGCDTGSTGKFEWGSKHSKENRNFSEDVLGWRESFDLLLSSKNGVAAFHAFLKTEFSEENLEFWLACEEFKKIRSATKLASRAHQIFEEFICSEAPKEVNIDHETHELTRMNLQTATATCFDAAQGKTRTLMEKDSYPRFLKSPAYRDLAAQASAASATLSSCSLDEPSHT
Target sequence (P09471 whole entry, looked up): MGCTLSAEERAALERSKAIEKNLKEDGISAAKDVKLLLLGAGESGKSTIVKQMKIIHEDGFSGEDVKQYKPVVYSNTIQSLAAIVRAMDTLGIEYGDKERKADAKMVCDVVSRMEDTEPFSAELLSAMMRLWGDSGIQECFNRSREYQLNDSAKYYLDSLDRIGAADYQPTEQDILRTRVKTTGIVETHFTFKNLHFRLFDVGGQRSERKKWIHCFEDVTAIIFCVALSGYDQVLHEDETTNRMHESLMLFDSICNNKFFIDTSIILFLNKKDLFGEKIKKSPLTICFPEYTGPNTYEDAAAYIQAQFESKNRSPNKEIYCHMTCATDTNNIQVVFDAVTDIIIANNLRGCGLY
Insulin prom inh cell count: second read-out of Insulin prom inh, no call of its own (marks repeat the call); normalized cell count, %; measured here: cell count, toxicity; reference of the scale not given here;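 cells exposed to compound for 48 h; stained nuclei by imaging scaled within each plate; lower means fewer cells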
HSV augment primary fold: further read-out of HSV augment, marked with its call; fold increase; compound at 10 µM; measured here: primary screen fold increase 10 uM; tested in PC3 cells;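 GFP signal in the first replicate; 1 = infected wells without compound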
Numbers without * were called inactive; i = inactive; / = no result given.

SMILES	GALR2 ag	Insulin prom inh	Insulin prom inh cell count	PKD1 inh	HSV augment	HSV augment primary fold	RGS16-Gao
CC(C)(C)NC(=O)COC(=O)CCC(=O)c1ccc(F)cc1	/	/	/	-1	i	1.1	96
Cc1ccc(-c2cc(C(F)(F)F)n3nc(C(=O)N4CCCC4)cc3n2)cc1	0.5	-68	85	-12	/	/	/
COC(=O)Cc1ccc(NC(=S)N2CCN(c3cc(Cl)ccc3C)CC2)cc1	/	-35	131	5	i	0.87	98
COC(=O)[C@@]1(Cc2ccc(F)cc2)[C@H]2c3cc(C(=O)N4CCCC4)n(CCc4ccc(O)c(O)c4)c3C[C@H]2CN1C(=O)c1ccccc1	-2.2	5	54	-6	/	/	93
O=C(Cn1nnc2ccccc2c1=O)N1CCCc2ccccc21	-2.9	/	/	-1	i	0.86	107
CC(=O)Nc1ccc(Nc2ncnc3c2cnn3-c2cccc(C)c2)cc1	-1.3	/	/	-11	i	0.65	104
COc1cccc(OCC(O)CN(CCO)Cc2ccccc2)c1 (stereo not drawn)	-1.5	-32	95	-12	i	1	100
COc1ccc(OC)c(C(=O)COC(=O)c2c(OC)cccc2OC)c1	-1.0	/	/	-6	i	1	93
CSc1nc(NC(C)C)nc(N2CCOCC2)n1	-1.6	-88	104	-1	i	0.95	100
COc1cc(C(=O)Nc2nc3ccccc3[nH]2)cc(OC)c1OC	-0.8	-58	88	-1	i	0.9	98
O=C(C1CCN(S(=O)(=O)c2cccs2)CC1)N1CCc2ccccc2C1	-0.4	/	/	7	i	0.72	101
CCN(CCn1cccn1)C(=O)CCc1nnc(CCCc2ccccc2)o1	/	/	/	-1	i	1	106
Nc1nc(N2CCN(c3cccc(Cl)c3)CC2)n[nH]1	/	/	/	3	i	0.93	104
CN1N=C2c3ccccc3CCC2C1c1ccc(Cl)cc1 (stereo not drawn)	/	/	/	/	i	1	104
O=S(=O)(Nc1nc2ccccc2nc1NCC1CCCO1)c1cccs1 (stereo not drawn)	-1.2	/	/	-2	i	0.87	68
COC(=O)c1[nH]c2cccc(OC)c2c1NC(=O)CCN1CC(C)CC(C)C1 (stereo not drawn)	-0.7	23	164	-9	i	0.96	101
COc1ccccc1N1CCN(C(=O)c2cccc(N3C(=O)NC4CC3(C)Oc3ccccc34)c2)CC1 (stereo not drawn)	-0.4	52	81	0	i	0.98	97
NS(=O)(=O)c1ccc(-n2nc(C(=O)O)cc2-c2ccc(Cl)cc2)cc1	/	-91	87	-7	i	0.97	108
Nc1nc(NC(=O)/C=C/c2ccccc2)nn1-c1ccccc1	-0.6	-185	161	-5	i	1	91
CN(C)C(=O)c1ccc2c(c1)n(C)c(=O)n2C	-2.8	-23	61	-8	i	1	85
COc1ccc(-c2cnnc(N/N=C/c3ccc(O)c(OC)c3)n2)cc1	-0.7	33	37	0	i	0.81	78
Cc1cccc(C(=O)n2cnnc2N)c1	/	6	71	4	i	1.1	97
Cc1onc(-c2ccccc2)c1C(=O)N/N=C/c1cccs1	/	/	/	/	i	1.1	106
O=C1NCCN1CCN1C(=O)c2ccccc2NC1c1ccccc1 (stereo not drawn)	/	/	/	/	i	0.91	108
O=C1CC(SCc2nc3ccccc3[nH]2)C(=O)N1c1ccc(F)cc1 (stereo not drawn)	-0.6	28	83	-2	i	0.93	134
Cc1cc(C)n2nc(N)c(N=Nc3ccccc3)c2n1	/	/	/	/	i	0.93	103
CCOc1ccc(Cl)cc1CSc1n[nH]c(C)n1	/	/	/	2	i	0.93	105
COc1ccc(NC(=O)c2cccc(C#N)c2)cc1NS(=O)(=O)c1ccc(F)cc1	-2.2	-45	108	2	i	0.6	105
CC(C)n1nnnc1SCC(=O)NCc1cccs1	-3.4	7	78	-20	i	0.95	105
O=C(Cn1nnc2c(cnn2-c2ccc(F)cc2)c1=O)Nc1ccccc1C(F)(F)F	/	/	/	-5	i	1	106
CCOC(=O)C1CCN(C(=O)COc2ccc(Cl)cc2Cl)CC1	-1.3	0	83	-12	i	0.85	102
c1ccc2c3c([nH]c2c1)-c1[nH]ncc1CC3	-0.8	17	100	1	i	1.2	102
Cc1nccc2oc(=O)c(NC(=O)c3ccc(Cl)cc3)cc12	/	12	98	-2	i	0.99	99
CC12CCC(C(=O)N(CSC(=S)N/N=C\c3ccccc3)C1=O)C2(C)C (stereo not drawn)	-2.4	76*	107*	3	/	/	107
Cc1oc(S(=O)(=O)N2CCCCC2)cc1NC(=O)Nc1ccc(Cl)cc1	/	/	/	/	i	0.77	95
O=C(Cn1ncc2c(=O)oc3ccccc3c21)NCC1CCCO1 (stereo not drawn)	-1.2	/	/	-16	i	0.7	105
Cc1cnnn1-c1ccc([N+](=O)[O-])cc1	/	-70	110	-7	i	1	96
O=C(COC(=O)/C=C/c1cccc([N+](=O)[O-])c1)NCc1ccc2c(c1)OCO2	/	/	/	-5	i	1.1	97
N#Cc1ccc(-c2ccc(Cl)cc2)nc1SCC(=O)c1cccc(Cl)c1	-2.1	5	135	-5	/	/	98
Cc1nnsc1C(=O)NC1CCCCC1	-2.8	-15	101	0	i	1	105
CC(=O)c1cc(-c2ccccc2)n(CCC(=O)NCc2cccs2)c1C	-0.9	-9	54	-6	i	1	97
COc1ccc(-c2cc(N)n(CCC#N)n2)c(OC)c1	-0.7	/	/	-17	i	0.99	100
COc1ccc(-c2nnc(SCC(=O)N3CCCCC3)o2)c(OC)c1	-1.2	/	/	-9	i	1.1	105
CS(=O)(=O)c1ccc(Cl)c(C(=O)O)c1	0.9	/	/	-12	i	1	93
CN1CCN(S(=O)(=O)c2ccc(NC(=S)NC(=O)C(C)(C)C)cc2)CC1	/	/	/	5	i	0.88	111
Cc1ccccc1Nc1nc(N)nc(COC(=O)C2CCCCC2)n1	1.0	/	/	-2	i	1	47
COc1ccc(OC)c(C2C(C(=O)Nc3cccnc3)=C(C)NC3=C2C(=O)CCC3)c1 (stereo not drawn)	-1.2	-24	140	-8	i	0.87	95
C=CCn1c(CCC(=O)O)ccc1-c1ccc(OC)cc1	1.1	20	234	-6	i	0.96	100
O=C(NCCN1CCOCC1)c1cc(-c2ccco2)on1	-2.1	/	/	1	/	/	104
COc1ccc(/C=N/NC(=O)c2ccccc2OCc2ccccc2)c(OC)c1	/	/	/	-2	i	0.91	109
C=CCOC(=O)CCC(=O)Nc1cccc2ccccc12	-1.7	37	97	-6	i	0.93	104
O=C1OCC2=C1C(c1ccc(F)cc1)c1cc3c(cc1N2)OCCO3 (stereo not drawn)	/	-127	9	-6	i	0.62	110
O=C(/C=C/Nc1ccc(F)cc1F)c1cccs1	-1.4	/	/	-11	i	1.3	105
Cc1cc(NC(=O)CSc2nc(N)c(NC(=O)c3ccco3)c(=O)[nH]2)no1	/	/	/	/	i	1.2	123
Cn1cccc1C1C(C#N)=C(N)OC2=C1C(=O)CCC2 (stereo not drawn)	/	/	/	/	i	1	98
Brc1ccc(-c2nn3c(-c4ccco4)nnc3s2)o1	-0.7	/	/	7	i	0.84	89
Cc1ccc(C)c(NC(=O)Cn2c([N+](=O)[O-])cnc2C)c1	-1.4	6	135	-2	i	0.98	102
O=C(c1cccnc1)N1C2CCC1CC(O)(c1ccc(F)cc1)C2 (stereo not drawn)	-0.1	/	/	3	i	0.65	99
Cn1c(N)c(C(=O)COC(=O)c2cccc(S(=O)(=O)N3CCCCC3)c2)c(=O)n(C)c1=O	-0.2	-79	102	-2	i	0.88	98
CC(C)=CC(=O)Nc1ccc(OCc2ccccc2)cc1	/	-6	99	-1	i	0.91	104

(cont.)
SMILES	GALR2 ag	Insulin prom inh	Insulin prom inh cell count	PKD1 inh	HSV augment	HSV augment primary fold	RGS16-Gao
COc1ccc(S(=O)(=O)NCCOc2ccccc2)cc1-n1cnnn1	/	/	/	6	i	1	100
COc1ccccc1NC(=S)N(Cc1cccnc1)Cc1ccco1	/	-44	28	-4	i	1.1	103
CCN(CC)c1ccc2cc(S(=O)(=O)c3ccc(Cl)cc3)c(=O)oc2c1	43*	-10	150	4	i	1.2	97
CCCCOC(=O)c1nc(Cl)c(Cl)c(N)c1Cl	-0.4	/	/	-2	i	0.99	102
Cc1cc(C(=O)NNS(=O)(=O)c2ccccc2C(F)(F)F)nn1C(C)(C)C	/	/	/	/	i	1	104
COC(=O)[C@@]1(Cc2ccc(OC)cc2)[C@H]2c3cc(C(=O)N4CCCC4)n(CCn4cc([N+](=O)[O-])nc4C)c3C[C@H]2CN1C(=O)c1ccccc1	-2.5	5	99	-8	i	0.77	109
COc1ccccc1-c1cc(=O)c2c(O)ccc([N+](=O)[O-])c2o1	/	/	/	/	i	0.86	97
Cc1nn(C)cc1CNC(=O)Nc1ccc(Br)cc1Cl	-2.0	32	81	-10	i	0.95	110
Clc1nc(N2CCOCC2)ncc1Br	/	/	/	/	i	1.1	103
Cc1ccc(N2C=Nc3ccc(C)c4nc(C)cc2c34)cc1	-1.1	85*	131*	-2	i	0.83	104
NC(=O)c1ccc[n+](CC(=O)c2ccc(F)cc2)c1	/	/	/	/	i	0.84	98
O=C1C2CCCN2C(c2ccccc2F)N1c1cccc(Cl)c1 (stereo not drawn)	-2.3	/	/	6	i	1.2	102

Reformatted bar-delimited: 15 of the compounds above.
smiles | GALR2 ag | Insulin prom inh | Insulin prom inh cell count | PKD1 inh | HSV augment | HSV augment primary fold | RGS16-Gao
Cn1cccc1C1C(C#N)=C(N)OC2=C1C(=O)CCC2 (stereo not drawn) | / | / | / | / | i | 1 | 98
Brc1ccc(-c2nn3c(-c4ccco4)nnc3s2)o1 | -0.7 | / | / | 7 | i | 0.84 | 89
Cc1ccc(C)c(NC(=O)Cn2c([N+](=O)[O-])cnc2C)c1 | -1.4 | 6 | 135 | -2 | i | 0.98 | 102
O=C(c1cccnc1)N1C2CCC1CC(O)(c1ccc(F)cc1)C2 (stereo not drawn) | -0.1 | / | / | 3 | i | 0.65 | 99
Cn1c(N)c(C(=O)COC(=O)c2cccc(S(=O)(=O)N3CCCCC3)c2)c(=O)n(C)c1=O | -0.2 | -79 | 102 | -2 | i | 0.88 | 98
CC(C)=CC(=O)Nc1ccc(OCc2ccccc2)cc1 | / | -6 | 99 | -1 | i | 0.91 | 104
COc1ccc(S(=O)(=O)NCCOc2ccccc2)cc1-n1cnnn1 | / | / | / | 6 | i | 1 | 100
COc1ccccc1NC(=S)N(Cc1cccnc1)Cc1ccco1 | / | -44 | 28 | -4 | i | 1.1 | 103
CCN(CC)c1ccc2cc(S(=O)(=O)c3ccc(Cl)cc3)c(=O)oc2c1 | 43* | -10 | 150 | 4 | i | 1.2 | 97
CCCCOC(=O)c1nc(Cl)c(Cl)c(N)c1Cl | -0.4 | / | / | -2 | i | 0.99 | 102
Cc1cc(C(=O)NNS(=O)(=O)c2ccccc2C(F)(F)F)nn1C(C)(C)C | / | / | / | / | i | 1 | 104
COC(=O)[C@@]1(Cc2ccc(OC)cc2)[C@H]2c3cc(C(=O)N4CCCC4)n(CCn4cc([N+](=O)[O-])nc4C)c3C[C@H]2CN1C(=O)c1ccccc1 | -2.5 | 5 | 99 | -8 | i | 0.77 | 109
COc1ccccc1-c1cc(=O)c2c(O)ccc([N+](=O)[O-])c2o1 | / | / | / | / | i | 0.86 | 97
Cc1nn(C)cc1CNC(=O)Nc1ccc(Br)cc1Cl | -2.0 | 32 | 81 | -10 | i | 0.95 | 110
Clc1nc(N2CCOCC2)ncc1Br | / | / | / | / | i | 1.1 | 103
